BJeLR lethal = MLPCN primary cell-based screen for lethality selective to Ras in HRASV12 cells; BJeLR (HRASV12) viability, CellTiter-Glo ATP luminescence, 48 h; reference of the scale not given here; inhibition, % (test concentration not listed); 300,000 tested, 0.17% active;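 active = replicate mean above 50%; inconclusive = above 50% but judged a plate artefact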;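 also: 50 nL library stock added to about 25 µL; numbers are from one replicate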
Sa RN4220 lethal = growth inhibition of S. aureus RN4220, primary screen, OD600; 16 h; inhibition, % (test concentration not listed); 330,000 tested, 0.33% active;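 active = z-score of -3 or lower and OD600 up to 0.18 on both plates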;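 also: plate controls were untreated cells for no effect and reference antibiotic for full effect; stock transfer was 100 nL into about 80 µL; one replicate is shown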
ugtP null kill = growth inhibition of ugtP-null S. aureus, primary screen, RN4220 ugtP deletion, OD600; 16 h; some inactives read as strong as hits; growth inhibition, % (test concentration not listed); 330,000 tested, 0.54% active;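 active = z-score under -3 and OD600 up to 0.15 on both plates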;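 also: plate controls were untreated wells for no effect and antibiotic for full effect; wells of about 80 µL received 100 nL stock; the first replicate is given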
PrP 5UTR inh = inhibition of PrP 5' UTR reporter expression; cell-based PrP 5' UTR mRNA reporter, plate reader; inhibition, % (concentration not given with the values); 340,000 tested, 0.35% active;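 active = every replicate at 50% or more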;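 also: 0 = median of the neutral control wells; tested in H4 reporter cells; numbers are from one replicate; inactives centre near -14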
Mtb hypoxia rep = PubChem AID 1159583; M. tuberculosis hypoxia-regulated fluorescent reporter, fluorescence; fluorescence inhibition, % (concentration not given with the values); 300,000 tested, 0.1% active;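 active = 35 to 45% if threefold the growth effect, above 45% if 1.5-fold the growth effect; inactive = the rest, general growth blockers included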;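 also: wells of about 50 µL received 100 nL stock; 0% = vehicle wells and 100% = reference inhibitor wells; whole bacteria with a GFP reporter of the hypoxia response; strong numbers were not always called active; many hits fall short of the cut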
Bead autofluor = counter-screen for toxin protease inhibitors: compound fluorescence; 360,000 tested, 3.1% active; AID 624483; compound autofluorescence counterscreen, microsphere flow cytometry; hits give high values; fluorescence intensity (test concentration not listed);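 active = at least 3 SD above the mean of all compounds, about 16000 in these data; inconclusive = too few beads counted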;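 also: 100 nL of 1 mM stock went into each well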
Mtb hypoxia rep growth = recorded beside Mtb hypoxia rep, whose call it bears; growth inhibition, %; measured here: M. tuberculosis growth (absorbance);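 0% = vehicle and 100% = reference antibiotic; read after six days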
Numbers without * were called inactive; ? = inconclusive; nt = no result given. Rows are unselected, and some 4% of all compounds hit somewhere here.

Value order: BJeLR lethal	Sa RN4220 lethal	ugtP null kill	PrP 5UTR inh	Mtb hypoxia rep	Mtb hypoxia rep growth	Bead autofluor
- CCN(CC)c1ccc(NC(=O)COc2ccccc2C#N)cc1S(=O)(=O)Nc1ccccc1OC
→ 4	5.1	-1	-12	6	11	2632
- COc1ccc([C@H]2[C@H](C(=O)C(C)(C)C)N3N=Cc4ccccc4C3[C@]23N=C(c2ccccc2)OC3=O)cc1OC (some centres undefined)
→ nt	-2.0	-7	-41	-2	3	5760
- CCc1cc2c(SCC(=O)N(C)C3CCS(=O)(=O)C3)ncnc2s1 (centres undefined)
→ -5	1.9	8	-17	-6	-2	4443
- O=C(CC1C(=O)NCCN1Cc1ccc(F)cc1)NC1CCCCCCC1 (centres undefined)
→ -3	-1.7	-3	-26	5	7	nt
- COc1ccc(OCCCC(=O)Nc2cccc(SC)c2)cc1
→ -26	4.6	-2	-15	2	5	2209
- COc1ccccc1/C=C/CN1CCCC(CCC(=O)NCc2ccc(F)c(F)c2)C1 (centres undefined)
→ 14	nt	nt	-14	nt	nt	5773
- COc1cc(OC)cc(C(=O)NCC(=O)N2CC=C(c3ccccc3)CC2)c1
→ nt	0.7	-3	-18	5	15	5959
- CCOC(=O)C1(Cc2cccc(Cl)c2)CCCN(C(=O)C2CC2)C1 (centres undefined)
→ 5	5.4	-2	-24	8	4	2030
- CCCC(=O)Nc1ccccc1N1CCN(C(=O)C(C)C)CC1
→ -13	0.2	6	-23	9	6	6710
- C=CCNC(=O)COc1ccc(S(=O)(=O)N2CCCC2)cc1
→ 5	5.2	4	0	6	5	3720
- COCc1cc(S(=O)c2ccc(Cl)cc2)nc(C)n1 (centres undefined)
→ 5	2.8	3	2	10	0	4349
- Cc1ccc(NCc2nnc(SCC(N)=O)o2)c(C)c1
→ 2	5.5	4	-8	9	8	4508
- CC(=O)NN1C(=O)/C(=C2/Sc3ccc(Cl)cc3N2C)SC1=S
→ -1	4.6	5	-45	5	1	3174
- CC(=O)c1ccc(N(C(=O)c2csnn2)C(C(=O)NC2CCCC2)c2ccccc2)cc1 (centres undefined)
→ 0	-2.5	7	-24	1	2	3030
- CSCC[C@H](NS(=O)(=O)c1ccc(C)cc1)C(=O)N1CCC(C(=O)N[C@@H](C)C(=O)O)CC1
→ -3	-0.6	2	-3	nt	nt	5572
- CCN(CC)c1ccc(/C=C(/C#N)c2nc3ccccc3[nH]2)c(OC(C)C)c1
→ 2	4.0	-39	-33	13	18	10986
- Cc1ccc(-c2cc(-c3nnc(SCC(=O)N(C)CCC#N)n3N)c3ccccc3n2)cc1
→ -8	7.7	-1	-18	10	10	3766
- COc1ccc(Cl)cc1N(CC(=O)N1CCCCC1)S(C)(=O)=O
→ -2	0.5	7	-42	-7	-14	4348
- COc1cccc(C2/C(=C(/O)c3ccc4c(c3)CC(C)O4)C(=O)C(=O)N2CC2CCCO2)c1 (centres undefined)
→ nt	-0.2	-2	-15	7	4	?
- CC(Cc1cccs1)NC(=O)c1cccc(Cl)c1 (centres undefined)
→ 21	2.6	1	-47	nt	nt	2551
- O=C(c1nc2ccccc2s1)N1CCN(c2ccccn2)CC1
→ nt	-1.0	-3	-34	nt	nt	4510
- O=C(COC(=O)C1(c2cccc(F)c2)CCCC1)NCc1ccc2c(c1)OCO2
→ -17	-3.7	-1	0	0	9	10042
- COc1ccc(N2CCN(C(=O)c3cc(-c4cccs4)nc4ccccc34)CC2)cc1
→ 4	nt	nt	-16	nt	nt	4503
- O=C(Oc1ccc(OC(=O)N2CCCCC2)cc1)c1ccccc1
→ 3	10	-1	-56	-2	1	9609
- CC(C)CC(=O)NNC(=S)Nc1ccc(S(N)(=O)=O)cc1
→ -1	6.9	10	-17	13	10	4233
- COCCNC(=O)C(c1ccc(C)o1)N(Cc1ccc(F)cc1)C(=O)Cn1nnc2ccccc21 (centres undefined)
→ 1	4.0	0	-12	nt	nt	4332
- C[n+]1ccc(C(=O)N/N=C/c2ccco2)cc1
→ 4	nt	nt	-14	nt	nt	2122
- Cc1nn(C)cc1C=NNC(=O)C1(O)c2ccccc2-c2ccccc21
→ nt	2.8	2	nt	1	2	nt
- CC(=NNC(=O)c1cccnc1)c1c(O)cc(C)oc1=O
→ nt	5.9	1	nt	2	3	nt
- Cc1c(C(=O)Nc2ccc(F)cc2)oc2ccc(S(=O)(=O)N3CCCC3)cc12
→ -1	3.9	-9	-14	3	3	4097
- CC(C)(C)NC(=O)N1CCCN(c2ccc(C(F)(F)F)cn2)CC1
→ -2	4.6	9	-9	-1	4	3943
- Cc1cccnc1NC(=O)c1cccc(NC(=O)CC2SC(N3CCCCC3)=NC2=O)c1 (centres undefined)
→ nt	5.3	8	-8	-5	-6	4957
- Cc1ccc2cc(C(c3nnnn3Cc3ccccc3)N3CCc4ccccc43)c(=O)[nH]c2c1C (centres undefined)
→ -2	8.9	-10	-12	3	5	20150*
- CCn1c(=N)n(CC(=O)C(C)(C)C)c2ccccc21
→ -8	5.3	11	-2	0	-2	8194
- CC(c1ccon1)N(C)C(=O)c1ccc2nc(Cc3cccc(Cl)c3)oc2c1 (centres undefined)
→ 0	0.0	-2	8	6	-6	4740
- CN1CCCC(OC(=O)c2ccc(Cl)cc2)C1 (centres undefined)
→ 3	1.9	4	-9	0	1	3532
- O=C(CSc1nc2ccccc2c(=O)n1CCCN1CCOCC1)Nc1ccccc1OC(F)F
→ nt	4.0	1	2	0	18	3553
- Cc1ccc(C(=O)Nc2c(C)cc(C)c3cccnc23)cc1
→ -14	-1.2	6	-8	5	-2	3741
- N#CCCn1cc(CNCc2ccccc2)c(-c2cccc([N+](=O)[O-])c2)n1
→ 2	4.9	3	-14	5	-8	4502
- COC(=O)c1oc2c(c1C)C1(CCC2)SCCS1
→ -3	8.3	40	-7	nt	nt	2701

Following part
mol	BJeLR lethal	Sa RN4220 lethal	ugtP null kill	PrP 5UTR inh	Mtb hypoxia rep	Mtb hypoxia rep growth	Bead autofluor
CN1CCCN(C(=O)c2ccc(Cl)cc2)CC1	-5	-2.2	9	-29	4	5	4283
COc1ccccc1NC(=O)c1ccc(CS(=O)(=O)c2ccc(C)cc2)cc1	2	4.6	3	-35	6	4	2190
N#CCCn1cc(/C=N/O)c(-c2ccc(Cl)cc2)n1	-12	nt	nt	-21	nt	nt	16065
CC(/C=C/c1ccccc1)NC(N)=O (centres undefined)	-9	1.4	7	-17	-3	-8	8180
CN1C(=O)c2ccccc2NC(=O)C1Cc1ccccc1 (centres undefined)	0	0.9	8	-8	nt	nt	4349
CC(=O)Nc1ccc(/C=N/N2C(=O)NC(C)(c3ccc(OC(F)F)cc3)C2=O)cc1 (centres undefined)	-5	nt	nt	-13	nt	nt	5182
CCC(CC)C(=O)c1c[nH]c(C(=O)NCc2ccc(F)cc2)c1	10	2.5	5	-11	8	11	3791
CCC(=O)NCCn1ccc2ccccc21	-8	3.5	3	-23	1	-3	6615
COc1cc(C=Nn2c(C)n[nH]c2=S)ccc1OCc1ccccc1	nt	3.9	5	nt	13	-2	nt
O=[N+]([O-])c1ccccc1C=NN1CCN(c2ccncc2S(=O)(=O)N2CCCCC2)CC1	nt	23	-5	nt	-12	3	nt
COc1ccc(Nc2nc3c(C)cccn3c(=O)c2C=O)cc1	21	-2.2	-1	-23	nt	nt	3524
C(=N\Nc1ccccn1)/c1ccc(N2CCOCC2)cc1	2	nt	nt	-87	nt	nt	3890

Given as labelled records: entries from further up.
> CN1CCCN(C(=O)c2ccc(Cl)cc2)CC1
  BJeLR lethal: -5 | Sa RN4220 lethal: -2.2 | ugtP null kill: 9 | PrP 5UTR inh: -29 | Mtb hypoxia rep: 4 | Mtb hypoxia rep growth: 5 | Bead autofluor: 4283
> N#CCCn1cc(/C=N/O)c(-c2ccc(Cl)cc2)n1
  BJeLR lethal: -12 | Sa RN4220 lethal: nt | ugtP null kill: nt | PrP 5UTR inh: -21 | Mtb hypoxia rep: nt | Mtb hypoxia rep growth: nt | Bead autofluor: 16065
> CN1C(=O)c2ccccc2NC(=O)C1Cc1ccccc1 (centres undefined)
  BJeLR lethal: 0 | Sa RN4220 lethal: 0.9 | ugtP null kill: 8 | PrP 5UTR inh: -8 | Mtb hypoxia rep: nt | Mtb hypoxia rep growth: nt | Bead autofluor: 4349
> CCC(=O)NCCn1ccc2ccccc21
  BJeLR lethal: -8 | Sa RN4220 lethal: 3.5 | ugtP null kill: 3 | PrP 5UTR inh: -23 | Mtb hypoxia rep: 1 | Mtb hypoxia rep growth: -3 | Bead autofluor: 6615

(next part)
mol	BJeLR lethal	Sa RN4220 lethal	ugtP null kill	PrP 5UTR inh	Mtb hypoxia rep	Mtb hypoxia rep growth	Bead autofluor
CC(C)CCNC(=O)CN1N=C(c2ccc(Cl)cc2)CCC1=O	-1	3.6	1	-20	13	7	3963
Cc1ccccc1-c1nnc(SCC(=O)Nc2cccnc2Cl)o1	nt	-0.5	0	-6	-5	6	3645
CC(=O)N1N=C2C3CCN(CC3)C2C1c1ccc(C)cc1 (centres undefined)	12	-8.6	0	-27	11	5	4889
O=C(Cn1c(=O)n(Cc2ccc3c(c2)OCO3)c(=O)c2ccccc21)N1CCCc2ccccc21	nt	-2.4	2	-4	nt	nt	3550
O=C(c1cc([N+](=O)[O-])ccc1Cl)N1CCN(c2ccccc2)CC1	-1	-0.7	2	-40	5	-1	6725
CCCC(=O)Nc1ccc(C(=O)N/N=C2\CC(=O)CC(C)(C)C2)cc1	5	nt	nt	-30	nt	nt	11221
O=C1COc2ccc(-c3csc(NCCc4ccccc4)n3)cc2N1	2	4.3	7	-25	-2	1	3352
COc1cccc(/C=C2\Oc3cc(OC(=O)N4CCOCC4)ccc3C2=O)c1	12	3.7	10	-36	12	-1	nt
CN1/C(=C\C(=O)c2cccs2)Sc2ccccc21	0	20	3	-29	nt	nt	3120
Cn1cnc2c1c(=O)n(CC(O)CO)c(=O)n2C (centres undefined)	-5	0.0	-7	-21	0	1	3240
COc1cc(/C=N/NC(=O)CCc2c(C)n[nH]c2C)ccc1O	0	nt	nt	-6	nt	nt	6829
CCOC(=O)c1c(C)n(C)c2ccc(OCC(O)CNCCc3ccccc3)cc12 (centres undefined)	2	0.4	-15	-1	-5	2	4023
O=C(C1=C[C@H](c2csc3ccccc23)C[C@H](OCCCCO)O1)N1CCN(Cc2ccc3c(c2)OCO3)CC1	-18	nt	nt	-26	nt	nt	3704
S=C(Nc1cccnc1)NC1CC2CCC1C2 (centres undefined)	-4	-1.0	2	-13	7	5	5007
O=C(NCC(c1ccccc1Cl)N1CCCC1)c1ccc(N2CCCC2=O)cc1 (centres undefined)	nt	0.2	0	-12	-7	0	?
O=[N+]([O-])c1ccccc1CNCCc1ccc(F)cc1	8	2.4	-3	-50	0	2	8120
COCCCn1nnnc1SCC(=O)N1CCCC1	3	0.8	-8	-15	6	8	3699
COc1cc(OC)cc(C(=O)OCC(=O)Nc2ccc3[nH]c(=O)[nH]c3c2)c1	1	5.5	6	-33	-2	-2	5509
COCCCN1C(=O)N(c2ccccc2)C(=O)C1CC(=O)Nc1ccc(F)cc1 (centres undefined)	-4	2.9	7	13	-10	6	4091
Nc1c(C(=O)OCC(=O)Nc2ccc(Cl)cc2[N+](=O)[O-])[nH]c(=O)[nH]c1=O	-3	3.0	1	-22	0	-1	5101
O=C(CNC(=O)c1ccco1)OCc1ccccc1F	nt	2.5	5	-22	0	4	2944
NC(=S)N/N=C1\CC(n2nnn(-c3cccc(Cl)c3)c2=S)C2COC1O2 (centres undefined)	-16	nt	nt	-26	nt	nt	3927

A draw from above in order of formula weight, largest number first.
mol	BJeLR lethal	Sa RN4220 lethal	ugtP null kill	PrP 5UTR inh	Mtb hypoxia rep	Mtb hypoxia rep growth	Bead autofluor
O=C(C1=C[C@H](c2csc3ccccc23)C[C@H](OCCCCO)O1)N1CCN(Cc2ccc3c(c2)OCO3)CC1	-18	nt	nt	-26	nt	nt	3704
COCCCn1nnnc1SCC(=O)N1CCCC1	3	0.8	-8	-15	6	8	3699
O=C(CNC(=O)c1ccco1)OCc1ccccc1F	nt	2.5	5	-22	0	4	2944

High-throughput results from PubChem.
